# Compound activity as filed in PubChem.
# miR-21 FLuc – qHTS Assay for Modulators of miRNAs and/orActivators of miR-21 | HeLa miR-21 FLuc reporter, luciferase, 48 h | Potency, µM (titrated, usually from 38.3 µM), for inactives: top-dose reporter change, positive = more light | 340,000 tested, under 10 active | AID 2288, 2010; active = well fitted rising curve with a large enough effect; inconclusive = small, poorly fitted or top-dose-only effect; inactive = no such curve, though single readings can be large or run the other way;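 further: % of control where 0% means no effect; miR-21 action dims this reporter so a rising signal means less miR-21 action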
#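 HeLa miR-21-FLuc reporter line, endogenous miR-21; 2000 cells/well in DMEM/10% FBS; compound titration up to ~40uM final, 48 h, 37 degree Celsius; luciferase detection reagent, 15 min lysis, CCD luminescence.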
# Rango dissoc inh – qHTS Assay for Inhibitors of RanGTP induced Rango (Ran-regulated importin-beta cargo) - Importin beta complex dissociation | Snurportin-1 (Homo sapiens) + GTP-binding nuclear protein Ran (Homo sapiens) + Importin … | Biochemical FRET Rango-importin beta, RanGTP-induced dissociation | Potency, µM (series often up to 46.1 µM), for inactives: top-dose activity change, negative = inhibition | 340,000 tested, 0.071% active | AID 540253, 2011; active means falling FRET ratio curve, often poorly fitted, with flat reads before Ran was added; inconclusive means other falling curves, or compound fluorescence or quenching; inactive means flat or rising ratio curve;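 further: potency means the concentration at half of the fitted maximal effect; % of control where 0% means no effect; nearly all actives have a fitted effect of over 45% in size; -100% = wells without RanGTP and RCC1; the record marks most hits as doubtful in a second field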
#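 Rango FRET biosensor (snurportin-1 IBB flanked by N-terminal EYFP and C-terminal CFP10) at 0.1 uM, with 0.25 uM importin beta in PBS, 1mM DTT, 0.02% Tween-20, 0.1% BSA. 0.6 uM Ran, 2mM GTP and 0.2 uM RCC1 were then added for 45 min at room temperature. Inhibition read as loss of FRET rise.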
# Rango complex inh – qHTS Assay for Inhibitors of Rango (Ran-regulated importin-beta cargo) - Importin beta complex formation | 340,000 tested, 0.031% active | Rango CFP/YFP FRET sensor + importin beta, 45 min | Importin subunit beta-1 (Homo sapiens), Q14974 | Potency, µM (highest dose often 92.2 µM), inactives show at the highest dose inhibition of complex formation; active = rising FRET ratio curve, often small or poorly fitted; inconclusive = mostly compound fluorescence or quenching in the first reads; inactive = flat curves in all reads;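 further: potency means the concentration at half of the fitted maximal effect; 0% = DMSO wells and 100% = buffer wells lacking importin beta; nearly all actives have a fitted effect of over 15% in size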
#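 FRET biosensor (snurportin 1 IBB flanked by EYFP and cerulean), 50 nM, with compound 5 min, then 0.125 microM importin beta in PBS, 1 mM DTT, 0.02% Tween-20, 0.1% BSA. CFP/YFP ratio read after 45 min at room temperature; pre-read flags interference.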
# GLA inh pH 4.5 – qHTS Assay for Inhibitors of Human alpha-Galactosidase at pH 4.5 | activity change, negative = inhibition, % at 105 µM | purified enzyme, 4-MU-alpha-Gal fluorescence, pH 4.5 | 230,000 tested, under 10 active; inconclusive = small, poorly fitted or top-dose-only inhibition, or a rising curve; inactive = flat fitted curve, though single readings scatter; no compound was filed as active;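 further: 0% = full activity with enzyme and -100% = basal without enzyme; dose as in the result columns while the protocol names 77 µM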
# Target sequence (P06280 whole entry, looked up): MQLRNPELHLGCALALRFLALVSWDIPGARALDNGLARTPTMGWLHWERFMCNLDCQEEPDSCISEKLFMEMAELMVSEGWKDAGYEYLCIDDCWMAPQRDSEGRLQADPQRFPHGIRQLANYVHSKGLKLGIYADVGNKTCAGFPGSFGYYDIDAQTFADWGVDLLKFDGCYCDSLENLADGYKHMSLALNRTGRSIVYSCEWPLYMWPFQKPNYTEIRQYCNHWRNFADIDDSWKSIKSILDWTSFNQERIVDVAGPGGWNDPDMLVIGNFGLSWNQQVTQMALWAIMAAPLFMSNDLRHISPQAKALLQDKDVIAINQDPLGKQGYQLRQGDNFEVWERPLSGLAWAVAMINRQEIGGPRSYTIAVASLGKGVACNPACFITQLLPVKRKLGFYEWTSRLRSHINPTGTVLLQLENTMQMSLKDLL
# * hit, by the source's call; ? = inconclusive; nt = no result given; & = joins results of further samples. Some of the compounds tested, so the mix of outcomes need not match the whole.
# Fields: miR-21 FLuc | Rango dissoc inh | Rango complex inh | GLA inh pH 4.5
- CCOC(=O)C1=C(C)NC2=C(C(=O)CC(c3ccc(OC)c(OC)c3)C2)C1c1ccc(C)o1 (configuration not stated)
  0% | -33% | ? | 0
- O=C(N/N=C/c1cc([N+](=O)[O-])ccc1Cl)c1cc(-c2ccccc2)nc2ccccc12
  -1% | 14% | 0.1% | 3
- Cc1nc2ncnn2c(N2CCN(C(c3ccccc3)c3ccccc3)CC2)c1C
  2% | 7% | 7.1% | 4
- CC(=O)Nc1ccc(S(=O)(=O)N2CCN(C(=O)c3ncoc3-c3ccccc3C)CC2)cc1
  8% | 0% | -2.4% | nt
- O=C(NC(Cc1ccccc1)C(=O)O)C1CCCCC1 (configuration not stated)
  -2% | -3% | -1.8% | 2
- CC(C)CCN1C(=O)C2(OCCCO2)c2cc(Cl)ccc21
  -8% | 2% | 0.4% | nt
- CSCCC1C(=O)OC2(C)CC(C)(C)NC(=S)N12 (configuration not stated)
  -4% | 5% | 2.3% | 3
- CC1CCCCC1NC(=O)COC(=O)CNC(=O)c1cccc(F)c1 (configuration not stated)
  -1% | -7% | -1.0% | 3
- O=C(O)CCCn1cc(NC(=O)c2cc(F)c(F)cc2Cl)cn1
  0% | 4% | 0.1% | -7
- CCc1c(C)[nH]c(C(=O)OCc2ccccc2)c1C
  -43% | 15% | 3.2% | -4
- CCC/C=C1/CCCOC(C(=O)NCc2cc(C)n(C)n2)(C(F)(F)F)C1 (configuration not stated)
  nt | 14% | 0.1% | nt
- COc1ccc(-c2nc(NC(=O)c3ccccc3)sc2-c2ccc([N+](=O)[O-])cc2)cc1
  -3% | ? | ? | 0
- CC1(C)CC(=O)C(C=Nc2ccc(NC3=C(C#N)C(=O)CC(C)(C)C3)cc2)=C(O)C1
  1% | -3% | 0.0% | 0
- COc1ccc(NS(=O)(=O)c2cc(C(=O)N3CCN(C(C)=O)CC3)ccc2Cl)cc1
  -3% | -6% | -0.3% | -8
- [O-]/C(=C(\C(=S)Nc1ccc(Cl)cc1)[n+]1ccccc1)c1ccc(OC(F)F)cc1
  -13% | 1% | 0.2% | -26
- CCC(C(=O)Nc1cc(C(=O)Nc2cc(C)ccn2)ccc1Cl)c1ccccc1 (configuration not stated)
  -8% | -12% | 2.5% | 10
- CCN(Cc1ccccc1)S(=O)(=O)CCNC(=O)c1ccccc1
  nt | 4% | 13% | nt
- COC(=O)CSc1nnc(-c2cccs2)n1-c1ccc(Cl)cc1
  -4% | -2% | -0.6% | 0
- CCc1c(Cl)nc(N)nc1Nc1ccccc1Cl
  nt | 0% | -0.5% | nt
- COc1ccccc1CN=c1c([N+](=O)[O-])nn(-c2ccc3c(c2)OCCO3)n1O
  -57% | 1% | 0.1% | -1

# Part of the list above, reformatted:
> COC(=O)CSc1nnc(-c2cccs2)n1-c1ccc(Cl)cc1
  miR-21 FLuc: -4%	Rango dissoc inh: -2%	Rango complex inh: -0.6%	GLA inh pH 4.5: 0

> CCc1c(Cl)nc(N)nc1Nc1ccccc1Cl
  miR-21 FLuc: nt	Rango dissoc inh: 0%	Rango complex inh: -0.5%	GLA inh pH 4.5: nt

# (further entries)
# Fields: miR-21 FLuc | Rango dissoc inh | Rango complex inh | GLA inh pH 4.5
- Cc1ccc(/C=C/C(=O)NC2=NCCS2)cc1
  -35% | 24% | -1.4% | -2
- Nc1ccc2sc(N)nc2c1
  nt | 3% | -0.8% | nt
- CCNc1ncnc2[nH]ncc12
  nt | -7% | -2.9% | nt
- Cc1ccc(NC(=O)COC(=O)c2ccc(-n3cccn3)cc2)cc1C
  nt | -6% | -0.3% | nt
- COC1C(OC(=O)/C=C/C=C/C=C/C=C/C(=O)O)CCC2(CO2)C1C1(C)OC1CC=C(C)C (configuration not stated) (tested in a mixture with another compound)
  nt | 2% | -1.0% | nt
- O=C(O)c1cccc(S(=O)(=O)N2CCN(C(c3ccccc3)c3ccccc3)CC2)c1
  -1% | -11% | 8.8% | -26
- Cc1ccccc1CN1C(=O)c2ccccc2S1(=O)=O
  0% | -1% | -0.7% | nt
- CC1CCCCN1C(=O)C1CCCN(S(=O)(=O)c2cccc3nsnc23)C1 (configuration not stated)
  -4% | 10% | -0.5% | nt
- C=CCOC(=O)C1=C(C)NC(SC)=C(C#N)C1c1ccc(OCC)cc1 (configuration not stated)
  -1% | -12%&0% | -2.0%&-3.8% | -15
- CC(C)N(Cc1ccccc1)C(=O)COC(=O)C1CCN(S(=O)(=O)c2ccc3c(c2)OCCO3)CC1
  nt | -14% | -0.2% | nt
- CC(NC1CCCCC1)C(=O)NN=C(c1ccccc1)c1ccccc1 (configuration not stated)
  0% | -12% | -6.7% | 2
- CSc1nc2nccc(-c3ccc(Oc4ccccc4)cc3)n2n1
  -8% | 4% | 1.9% | 13
- CC1(C)Cc2c(sc3nnn(CC(=O)Nc4ccccc4)c(=O)c23)CO1
  -5% | 5% | 1.3% | 1
- Cc1ccc(NS(=O)(=O)c2cccs2)c(C)c1
  -5% | 0% | 0.6% | nt
- COc1ccccc1NC(C)C(=O)Nc1ccc(C(C)=O)cc1 (configuration not stated)
  -4% | -17% | 4.0% | 2
- CCN(CC)S(=O)(=O)c1cccc(NC(=O)COC(=O)c2n[nH]c(=O)c3ccccc23)c1
  4% | 4% | 0.8% | 5
- FC(F)(F)c1cc(-c2cccs2)nc(-n2cc(Br)cn2)n1
  -1% | -3% | -4.1% | 6
- N#CC1(NC(=O)CSc2nnc(C3CC3)n2C2CC2)CCCCC1
  nt | -20% | -1.5% | nt
- CC(=O)Nc1ccc(C2=CC(=O)C[C@H](c3ccc(Cl)cc3)C2)cc1
  nt | 29% | 3.9% | nt
- O=[N+]([O-])c1cccc(/C=N/n2c(COc3ccccc3)n[nH]c2=S)c1
  -8% | -1% | 3.4% | 5

# Complete entries from above.
# Listed for O=C(O)c1cccc(S(=O)(=O)N2CCN(C(c3ccccc3)c3ccccc3)CC2)c1 : miR-21 FLuc = -1%; Rango dissoc inh = -11%; Rango complex inh = 8.8%; GLA inh pH 4.5 = -26
# Listed for CCN(Cc1ccccc1)S(=O)(=O)CCNC(=O)c1ccccc1 : miR-21 FLuc = nt; Rango dissoc inh = 4%; Rango complex inh = 13%; GLA inh pH 4.5 = nt

# Continued.
# Fields: miR-21 FLuc | Rango dissoc inh | Rango complex inh | GLA inh pH 4.5
- Cc1cc2nc(SCC(=O)N(C)C)c3c(c2cc1C)CCCC3
  1% | -4% | -1.7% | -11
- COc1cc(OC)c2cc(C(=O)N/N=C/c3ccccc3O)[nH]c2c1
  19% | ? | ? | nt
- O=c1[nH]c2ccccc2n1CCC1CCCCC1
  -50% | 4% | ? | 2
- COC(=O)c1ccc(C(=O)OC)c(NC(=O)CN2CCC(C)CC2)c1
  -1% | -16% | 1.6% | -7
- O=C1NC2(CCCCCC2)C(=O)N1Cc1ccc(F)cc1Cl
  0% | 3% | -1.4% | nt
- Cc1ccc(C(=O)NCC(=O)OCC(=O)c2ccc3c(c2)NC(=O)CO3)cc1
  9% | 3% | -0.4% | 3
- O=C(O)/C=C/C(=O)N(Cc1ccccc1)Cc1ccco1
  -1% | 3% | 3.0% | 9
- COC(=O)C(Cc1ccc(O)cc1)NC(=O)c1ccc2c(c1)OCCO2 (configuration not stated)
  -7% | -14% | -0.1% | nt
- CCN(CC)C(=O)Cn1cc(S(=O)(=O)CC(=O)Nc2ccc(F)cc2)c2ccccc21
  nt | -5% | 0.6% | nt
- CSc1ccc(/C=N/NC(=O)COc2ccc(Br)cc2Cl)cc1
  -2% | 31% | -2.1% | 7
- COc1ccc(-n2nnc3c(=O)n(Cc4cc(C)ccc4C)cnc32)cc1
  -6% | 2% | 4.9% | -1
- CCN(CC)C(=O)c1sc(NC(=O)Cc2cccs2)c(C#N)c1C
  -10% | -4% | 2.2% | -21
- CSC1=N/C(=C\c2cccc(Cl)c2)C(=O)N1N(C)C
  -14% | -7% | -0.4% | -11
- O=C(O)CCC(NC(=O)c1ccc(Cl)cc1)C(=O)O (configuration not stated)
  0% | 3% | 1.2% | 1
- CN(C)S(=O)(=O)c1ccc(C(=O)NNC(=O)c2ccccc2-n2cccc2)cc1
  nt | 4% | 1.2% | nt
- CCN(CC)C(=O)CSc1nc(-c2ccccc2)cc(=O)[nH]1
  -1% | 3% | 1.0% | 5
- CC1=NN(C(=O)c2c(Br)cnn2C)C(O)(C(F)(F)F)C1 (configuration not stated)
  2% | 7% | ? | -9
- CCOc1ccccc1CN1CCN(C2CCOCC2)CC1CCO (configuration not stated)
  -1% | 8% | -1.0% | -1
- Cc1nc(SCC(=O)Nc2cc(S(=O)(=O)N3CCOCC3)ccc2Cl)nc(C)c1C
  nt | -2% | 0.0% | nt
- Cc1c(NS(=O)(=O)c2cc(C(=O)Nc3ccc(F)cc3Cl)ccc2Cl)c(=O)n(-c2ccccc2)n1C
  nt | 2% | -0.9% | nt

# Continuation:
SMILES	miR-21 FLuc	Rango dissoc inh	Rango complex inh	GLA inh pH 4.5
CCOc1ccc(NC(=O)Nc2nnc(CC(=O)NCc3ccccc3)s2)cc1	-5%	10%	1.4%	9
CSc1ncc(Cl)c(C(=O)NCc2cccnc2)n1	1%	6%	1.3%	nt
CC1CC1C(=O)N(C)CC(=O)Nc1ccc(Cl)c(C(F)(F)F)c1 (configuration not stated)	nt	-8%	1.1%	nt
Cn1nccc1C(=O)OCC(=O)Nc1ccccc1Cl	1%	-1%	0.4%	nt
Cc1ccc(OCC(=O)Nc2nnc(S(=O)(=O)N3CCCCC3)s2)cc1	-5%	-2%	-1.5%	nt
C=CCc1ccc(OCCCN2CCCC(C)C2)c(OC)c1 (configuration not stated)	-1%	4%	3.6%	-6
O=C(O)CN1C(=O)/C(=C\c2ccccc2OCc2ccc(Cl)cc2Cl)SC1=S	-7%	-7%	-0.2%	nt
O=C(CSc1ccccn1)Nc1nc2ccc(Br)cc2s1	-29%	-2%	-1.7%	-7
Fc1ccc(-c2csc(Nc3ccccn3)n2)c(F)c1	-11%	7%	0.2%	nt
C=CCn1c(SCC(=O)N(CC)C2CCS(=O)(=O)C2)nc2ccccc2c1=O (configuration not stated)	0%	13%	-1.3%	6
CCC(=O)Nc1ccc2c(c1)ncn2-c1ccccc1C	-19%	14%	3.0%	10
CCOc1ccc(NC(=O)CN(C)C(=O)Cc2sc(C)nc2-c2ccc(F)cc2)cc1OCC	nt	10%	0.7%	nt
COc1cc(/C=N/Nc2nc3ccccc3[nH]2)cc(OC)c1O	-5%	5%	-1.0%	-3
CN(Cc1ccccc1)C(=O)c1ccc2c(c1)OCO2	-20%	-10%	0.9%	7
O=C(NCCc1nc2ccccc2[nH]1)/C(=C/c1ccc2c(c1)OCO2)NC(=O)c1ccc(Cl)cc1Cl	8%	?	0.3%	9
COc1ccc2[nH]c(=O)c(CN(CCCN3CCOCC3)C(=O)NCc3ccccc3)cc2c1	-8%	-12%	0.2%	-3
Cc1sc2nc(-c3cccs3)oc(=O)c2c1C	1%	-12%	?	nt
COc1cc(Cl)c(C)cc1NC(=O)COC(=O)CCc1nc2ccccc2c(=O)[nH]1	nt	1%	-3.2%	nt
Cc1c(C(=O)N(C)C)c2cc(Cl)ccc2n1O	-3%	9%	7.3%	-7
COc1cc(CCC(=O)N2CCN(c3ccccc3Cl)CC2)cc(OC)c1OC	0%	-11%	-4.3%	nt
CC(=O)c1cccc(N(CC(=O)N2CCCCC2)S(C)(=O)=O)c1	0%	6%	0.0%	1
O=C(O)c1cc(S(=O)(=O)N2CCCCC2)ccc1Cl	-3%	11%	2.0%	nt
COc1cccc(OC)c1C(=O)NCC12CC3CC(C1)CC(CNC(=O)c1c(OC)cccc1OC)(C3)C2	3%	7%	1.1%	nt
COc1ccc(Cl)cc1-c1csc(N)n1	-7%	-12%	-4.6%	-12
